# Rce1 inhib: yeast Ras-converting enzyme inhibition; yeast membranes, quenched prenylated peptide cleavage fluorescence; Q03530; calls only; 0.27% of 290,000 active; AID 2563;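 active means fall in fluorescence gain of 50% or more versus controls, with final raw signal at or below 3038400; inconclusive means same 50% fall but final raw signal above 3038400; inactive means fall in fluorescence gain under 50%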;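 further: plate controls were neutral control wells for no effect and wells lacking membranes for full effect; tested at 10 µM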
# Target sequence (Q03530 whole entry, looked up): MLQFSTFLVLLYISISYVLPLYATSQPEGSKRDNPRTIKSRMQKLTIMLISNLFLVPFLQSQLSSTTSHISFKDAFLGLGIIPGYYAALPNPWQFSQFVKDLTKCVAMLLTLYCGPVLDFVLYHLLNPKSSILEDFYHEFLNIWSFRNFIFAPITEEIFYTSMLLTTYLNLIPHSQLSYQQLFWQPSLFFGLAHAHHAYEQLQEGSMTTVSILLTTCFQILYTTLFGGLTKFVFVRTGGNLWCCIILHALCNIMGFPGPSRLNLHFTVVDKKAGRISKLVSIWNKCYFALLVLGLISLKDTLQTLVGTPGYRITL
# PABP polyA inh: blocks human PABP binding to poly(A) RNA; inhibition, % at 35 µM; AID 2014; 1% of 290,000 active; P11940; fluorescence polarization;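 active means 50% or more with normal probe brightness, or confirmed in later tests; inconclusive means above 50% with abnormal brightness, or retests that disagree; inactive means below 50% or failed in later tests; about a fifth of its hits are not listed in these tables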;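 further: calls also rest on retests at 20 µM and on dose response follow-up; controls were probe without protein and protein plus probe with vehicle; some compounds called inactive have numbers as strong as hits; many hits fall short of the cut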
# Target sequence (P11940 whole entry, looked up): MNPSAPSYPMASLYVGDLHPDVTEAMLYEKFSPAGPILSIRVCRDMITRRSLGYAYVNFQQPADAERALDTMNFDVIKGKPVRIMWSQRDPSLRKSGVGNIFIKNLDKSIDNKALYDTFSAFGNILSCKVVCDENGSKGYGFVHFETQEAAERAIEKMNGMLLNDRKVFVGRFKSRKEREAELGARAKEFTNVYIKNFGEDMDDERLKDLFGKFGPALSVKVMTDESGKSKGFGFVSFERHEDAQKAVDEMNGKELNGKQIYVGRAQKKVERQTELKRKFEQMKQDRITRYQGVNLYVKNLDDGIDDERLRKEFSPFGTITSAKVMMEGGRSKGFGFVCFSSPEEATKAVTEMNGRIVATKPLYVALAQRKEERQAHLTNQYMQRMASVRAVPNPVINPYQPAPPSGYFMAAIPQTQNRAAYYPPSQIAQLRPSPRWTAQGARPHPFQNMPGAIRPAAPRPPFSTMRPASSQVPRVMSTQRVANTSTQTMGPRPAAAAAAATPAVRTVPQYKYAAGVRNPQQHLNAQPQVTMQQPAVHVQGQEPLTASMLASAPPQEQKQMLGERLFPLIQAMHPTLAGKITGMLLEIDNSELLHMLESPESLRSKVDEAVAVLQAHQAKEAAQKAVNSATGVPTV
# Env fusion inh: HIV envelope-mediated fusion inhibition; 1.1% of 360,000 active; inhibition, % at 12.3 µM; HeLa-JRFL Env/CEM21 cell fusion, luciferase; AID 651610;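 active means mean replicate inhibition score of at least 50 and every replicate individually at or above 50; inconclusive means only one of the two criteria met; inactive means mean below 50 and not all replicates reaching 50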;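 further: 0% = plate neutral controls and 100% = maraviroc near 300 nM; one replicate is shown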
# CSC inhib: blocks cancer stem cells | cancer stem cell-like cells viability, luminescence | 1.1% of 300,000 active | inhibition, % at 7.5 µM;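 active means mean at 75% or more and at least half the replicates too; inconclusive means mean and replicates disagree; tested in HMLE shEcad cells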;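 further: 0% = median of negative and 100% = median of positive control wells; the first replicate is given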
# MT1-MMP act inh: inhibitors of human MT1-MMP activation. AID 651647. HT1080 RFP-PRO-GFP cells, GFP/RFP ratio fluorescence, overnight; percent of plate control window, DMSO zero. P50281. 0.061% of 360,000 active. GFP/RFP ratio change, % at 20 µM;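 active means GFP/RFP ratio change of at least 30% with cell ATP level not reduced by more than half and red fluorescence within 50% of control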; further: strong numbers were not always called active
#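 Compound: 20 µM single dose, 1% DMSO / System: HT1080 RFP-PRO-GFP cells / Controls: DMSO and RFP-L50D-GFP cell wells / Read-out basis: GFP/RFP fluorescence ratio / Schedule: overnight compound exposure at 37 °C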
# Yeast UUG start: yeast start codon fidelity modulation; S. cerevisiae UUG-firefly luciferase reporter, luminescence/redox ratio; activity score, % at 18.7 µM; 0.13% of 350,000 active; AID 602363;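 active means replicate mean at a twofold rise or more, about +100% in these data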;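 further: firefly luciferase made from a UUG start codon reports start codon fidelity; reporter light over untreated wells divided by growth signal over untreated wells; some hits fall short of that in this replicate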
# eIF4H FP inh: inhibitors of RNA binding by human eIF4H; Q15056; AID 2012; 0.94% of 290,000 active; inhibition, % at 35 µM; eIF4H fluorescence polarization binding assay;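 active means 50% or more with normal probe brightness, or confirmed in later tests; inconclusive means above 50% with abnormal brightness, or retests that disagree; inactive means below 50% or failed in later tests; about a fifth of its hits are not listed in these tables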;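 further: calls also rest on retests at 20 µM and on dose response follow-up; 0% = protein and probe with vehicle and 100% = probe without protein; strong numbers were not always called active; many hits fall short of the cut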
# MT1-MMP act inh RFP: recorded beside MT1-MMP act inh, whose call it bears; RFP signal change, %; measured here: RFP expression control read;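 0 = vehicle wells; hits needed this value within 50% of zero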
# * = called active by the depositor; i = inactive; ? = inconclusive; / = no result given.
# The opening four records as a preview:
SMILES,Rce1 inhib,PABP polyA inh,Env fusion inh,CSC inhib,MT1-MMP act inh,MT1-MMP act inh RFP,Yeast UUG start,eIF4H FP inh
Cc1cccc(NC(=O)CNC(=O)CSc2ncccn2)c1C,/,/,-8.8,2.3,-1.4,0.8,2.4,/
COc1ccccc1N1CCN(C(=O)c2cc3ccccc3[nH]2)CC1,i,-1.9,-4.3,0.9,-2.7,-1.0,2.9,-2.0
CC(C)Nc1ncnc2c1ncn2[C@H]1CN(CCN2CCOCC2)C[C@@H](CO)O1,/,/,-4.5,/,11.0,14.4,-11.1,/
O=C1CSc2ccc(S(=O)(=O)N3CCN(c4ccccc4F)CC3)cc2N1,i,10.9,-2.8,-15.3,1.3,-10.7,17.7,4.2

# This part in full, repeating the preview:
SMILES,Rce1 inhib,PABP polyA inh,Env fusion inh,CSC inhib,MT1-MMP act inh,MT1-MMP act inh RFP,Yeast UUG start,eIF4H FP inh
Cc1cccc(NC(=O)CNC(=O)CSc2ncccn2)c1C,/,/,-8.8,2.3,-1.4,0.8,2.4,/
COc1ccccc1N1CCN(C(=O)c2cc3ccccc3[nH]2)CC1,i,-1.9,-4.3,0.9,-2.7,-1.0,2.9,-2.0
CC(C)Nc1ncnc2c1ncn2[C@H]1CN(CCN2CCOCC2)C[C@@H](CO)O1,/,/,-4.5,/,11.0,14.4,-11.1,/
O=C1CSc2ccc(S(=O)(=O)N3CCN(c4ccccc4F)CC3)cc2N1,i,10.9,-2.8,-15.3,1.3,-10.7,17.7,4.2
CN(CC(=O)Nc1ccc(F)c(F)c1F)c1ncnc2sccc12,i,-5.7,27.3,1.9,4.0,-1.9,/,-12.7
CN(C(=O)COC(=O)c1ccc2c(=O)n3c(nc2c1)CCC3)c1ccccc1,i,-11.2,10.3,-13.9,-7.1,0.5,10.7,-3.6
O=C(COC(=O)COc1ccc(Cl)cc1)Nc1cccnc1Cl,/,/,-58.7,/,-0.1,3.0,-14.5,/
CC(C)C[C@H]1CN([C@@H](Cc2ccc(O)cc2)CN2CCC[C@@H]2CN2C(=S)NC[C@@H]2Cc2ccccc2)C(=S)N1CC1CCCCCC1,/,/,14.2,/,-5.4,-12.2,-18.6,/
COc1ccc(OC)c(-c2cc(C(=O)Nc3sc4c(c3C#N)CCC(C)C4)c3ccccc3n2)c1 (stereo unspecified),i,2.9,-61.2,0.8,4.5,1.5,-4.8,2.8
CCn1c(CCC(=O)Nc2ccccc2F)nnc1SCC(=O)Nc1ccc(OC)cc1,i,0.0,-5.1,-9.6,-1.7,1.3,-16.1,-9.4
COc1ccc(NC2=CC(=O)CC(C)(C)C2)cc1OC,/,-8.9,/,-7.5,3.9,7.9,-19.5,-7.7
Cc1ccc2c(c1)-c1c(cnn1CC(=O)NC(C)CCc1ccco1)CO2 (stereo unspecified),i,-9.1,/,-0.9,-9.8,0.2,-16.6,-9.1
CN(c1ccccc1C(=O)NCc1ccccn1)S(C)(=O)=O,i,-10.7,-8.0,-11.4,2.9,5.0,-26.9,8.4
Cc1ccc(OCC(=O)Nc2ccc(S(=O)(=O)Nc3cc(C)nc(C)n3)cc2)c(C)c1,i,/,-13.4,-14.2,-0.1,0.0,/,/
CCc1ccc(CN2CCN(C(=O)c3cccc(OC)c3OC)CC2)cc1,i,12.2,88.9*,1.5,-1.1,-15.7,-9.6,-6.3
CC(=O)c1cccc(NC(=O)c2ccc3c(c2)OCO3)c1,i,3.1,-40.2,-3.3,-2.0,3.5,10.9,7.0
CCOC(=O)C1=C(c2ccccc2)NC(SCC(=O)Nc2cccc(C)c2)=C(C#N)C1c1ccco1 (stereo unspecified),i,3.1,111.1*,15.9,-6.1,-7.5,/,-15.4
O=C(Nc1ccc2c(c1)Cc1ccccc1-2)c1ccncc1,i,4.5,2.1,10.3,3.3,-9.7,-14.7,-9.5
Cc1ccc(Cc2c(C)nc3nc(SCC(=O)NCCN4CCOCC4)nn3c2C)cc1,i,-5.7,11.1,/,0.7,0.4,-4.7,-17.3
O=C(Oc1ccc([N+](=O)[O-])cc1)c1cccnc1,i,-16.1,-0.7,6.6,-1.6,2.7,/,-4.9
CC1(C)C2CCC1(CS(=O)(=O)Nc1ccc(S(=O)(=O)NC3CCCCC3)cc1)C(=O)C2 (stereo unspecified),i,-8.9,11.4,6.4,-0.8,-9.1,/,-0.3
COc1ccc(CC(N)c2csc(NC(=O)c3ccccc3)n2)cc1 (stereo unspecified),/,/,9.4,/,13.1,-1.4,18.6,/
COc1ccc(OC)c(CNC(=O)CCC(=O)N2Cc3ccccc3Oc3ncccc32)c1,i,-3.0,1.5,-10.3,0.2,-7.1,-13.8,-5.8
CCC(=O)Nc1nnc(SCC(=O)N2c3ccccc3CC2C)s1 (stereo unspecified),i,-6.8,-103.8,9.7,-0.6,-2.2,-24.1,-4.7
Cc1cc(C)cc(-n2nnnc2SCC(=O)Nc2nc(-c3ccc(Cl)cc3)cs2)c1,i,0.7,/,6.0,3.1,-3.2,-14.3,9.7

# Further structures follow.
SMILES,Rce1 inhib,PABP polyA inh,Env fusion inh,CSC inhib,MT1-MMP act inh,MT1-MMP act inh RFP,Yeast UUG start,eIF4H FP inh
C=CCN(c1ccccc1)S(=O)(=O)c1cccc(C(=O)Nc2ccncc2)c1,i,/,/,-5.3,-2.8,-24.0,-0.1,/
Cc1cccc(N2CCN(C(=O)CCC(=O)N3CC(C)Oc4ccccc43)CC2)c1C (stereo unspecified),i,-5.7,25.3,65.4,-7.8,-23.6,-2.2,-11.3
O=C(Oc1ccc(-c2csnn2)cc1)c1cccs1,i,-10.0,3.9,-14.8,-1.7,3.6,-6.4,2.0
CCOC(=O)COc1c(OC)cc(Cl)cc1C1Nc2ccccc2C(=O)N1c1cccc(C)c1 (stereo unspecified),i,10.2,/,23.8,-8.5,-8.6,-4.4,-3.6
C[C@H](NC(=O)[C@@H]1Cc2ccccc2CN1C(=O)OC(C)(C)C)C(=O)NC1CCCC1,i,-5.1,-7.2,-5.9,-1.9,4.1,/,-0.5
S=C(NCCCN1CCOCC1)Nc1ccc(Cl)cc1,i,7.0,-7.5,-3.2,0.0,3.0,-15.1,-3.1
O=C1c2ccccc2C(=O)N1CCC#Cc1ccc2cc(CCO)oc(=O)c2c1,/,/,4.0,4.4,7.9,-6.5,13.2,/
CC1(C(=O)NS(=O)(=O)c2cccc(F)c2)CCN1C(=O)c1cccc(F)c1 (stereo unspecified),/,/,-15.4,/,-1.7,7.0,-8.8,/
O=C(Nc1cccc(S(=O)(=O)NC2=NCCC2)c1)c1ccccc1,/,/,-4.4,0.2,1.6,0.8,-13.4,/
O=C(Cc1c(F)cccc1Cl)NNC(=O)c1ccco1,/,/,-59.7,-11.6,1.6,3.0,-1.7,/
O=C(Nc1ccc(-n2cccn2)cc1)C1CCN(Cc2ccccn2)CC1,i,-3.1,/,-2.7,-5.8,1.5,-25.7,1.1
O=C(/C=C/[C@H]1O[C@@H](n2ccc(=O)[nH]c2=O)[C@H](O)[C@@H]1O)N1CCN(CCc2ccccc2)CC1,/,/,-15.5,/,6.4,8.3,-15.3,/
CC(C)NS(=O)(=O)c1ccc(CCC(=O)NCc2ccncc2)cc1,i,0.9,-12.9,-5.3,4.0,7.1,/,-3.0
CCSc1nnc(NC(=O)CCNS(=O)(=O)c2cc(Br)cnc2N)s1,/,2.1,-39.1,-10.6,5.2,-4.6,-11.5,-8.6
CCOc1ccc(C(=O)NCC2CCCO2)cc1OCC (stereo unspecified),i,5.7,-7.6,-20.1,-0.5,2.9,/,-4.1
COc1ccc(-c2ccc(/C=N/NC(=O)Cc3nnc(N)s3)o2)cc1Cl,i,11.7,-3.9,0.1,0.0,0.0,-10.9,21.2
CC(C)C1Cc2nc(Cl)c(C#N)cc2CO1 (stereo unspecified),i,5.1,-0.5,/,2.4,0.6,/,-9.5
COCCN(CCOC)c1ncc(Cl)c(C(=O)c2c(C)cc3ccccn23)n1,i,1.4,/,-4.9,-6.4,-3.0,3.6,8.4
CCN1CCN(c2cc(C)c3cc(NC(=O)c4cncc(Br)c4)ccc3n2)CC1,i,7.0,?,-2.8,-3.5,-8.9,3.3,4.0
c1ccc2c(N3CCCCC3)ncnc2c1,i,-0.7,69.9*,-4.3,-4.3,-3.1,-1.9,-10.4
COc1cc(/C=C(/C#N)C(=O)c2c(C)[nH]c3ccccc23)ccc1OCC#N,i,0.0,11.3,1.6,1.5,6.3,-19.8,-3.1
Cc1nnc(SCC(=O)Nc2nccs2)n(N)c1=O,i,-10.3,0.4,-1.5,2.3,0.4,/,1.6
O=C1NC(=S)SC1=Cc1ccc(Cl)cc1,/,/,-10.7,/,0.0,-1.9,-16.9,/
COc1ccc(NC(=O)C2(C)Cc3c(-c4ccc(N(C)C)cc4)ccnc3O2)cc1 (stereo unspecified),/,/,8.0,/,-1.7,-0.4,-14.0,/
CCOC(=O)/C(=N/Nc1ccc(C)cc1)S(=O)(=O)c1ccc(Cl)cc1,i,-12.8,/,15.1,-4.2,-3.2,-1.8,2.8

# (next part)
SMILES,Rce1 inhib,PABP polyA inh,Env fusion inh,CSC inhib,MT1-MMP act inh,MT1-MMP act inh RFP,Yeast UUG start,eIF4H FP inh
CCN1CCN(Cc2cc(=O)oc3cc4c(cc23)CCC4)CC1,i,-4.9,-32.0,-1.0,-8.6,1.6,-7.2,-22.4
Cc1ccc(NS(=O)(=O)c2cccc(C(=O)Nc3c(C)n(C)n(-c4ccccc4)c3=O)c2)cc1,i,-2.6,/,/,/,/,/,-5.0
COc1ccc(CC2=CC(=O)c3ccccc3C2=O)cc1,i,12.8,-8.9,55.1,-118.9,14.3,-28.0,16.6
Cc1ccc(S(=O)(=O)NC(=O)Nc2cccc([N+](=O)[O-])c2)cc1,i,8.4,-11.8,-2.6,-1.0,2.7,-12.8,12.6
Cc1nn(C)c(C)c1S(=O)(=O)N1CCC(C(=O)NC2CCCCCC2)CC1,i,-8.5,-61.1,-22.7,/,/,-11.2,-9.6
C#CCOCCOCCOCCNc1nc(N2CCN(C(=O)Cn3cc(CCO)nn3)CC2)nc(N2CCN(C(=O)[C@H](CCCCN)n3cc(CCCC)nn3)CC2)n1,/,/,-11.1,/,-3.7,-0.4,-1.1,/
Cc1ccc(S(=O)(=O)N2CCCCC2)cc1NC(=O)CSc1ncnc2ccccc12,i,6.8,/,-9.3,0.0,-10.7,-16.2,3.8
COc1ccc(Nc2nc(OC)nc(OC)n2)cc1,i,-8.6,-176.2,-4.9,-3.4,4.5,-9.4,2.6
COCCNC(=O)C1CCCN(C(=O)Cc2cccc3ccccc23)CC1 (stereo unspecified),/,/,9.9,/,-0.7,6.9,-12.9,/
O=C(O)c1ccccc1NS(=O)(=O)c1cccc(C(F)(F)F)c1,i,9.5,-13.9,-3.2,6.1,3.7,0.3,9.3
CCOC(=O)c1c(C#N)c(SCC(=O)Nc2ccc(OC)cc2)nc2c1CN(CC)CC2,i,27.8,/,/,0.6,3.9,11.6,32.4
COc1ccc(CNC(=O)CSc2nnnn2-c2ccccc2)cc1,i,7.5,/,-4.6,-1.2,-1.8,-12.7,-4.5
CC(=O)Nc1ccc(S(=O)(=O)Nc2ccc3ccccc3n2)cc1,i,5.2,2.5,-3.4,3.7,-1.7,3.1,-5.7
COc1ccc(CCNC(=O)c2nnn(-c3ccc4c(c3)OCCO4)c2N)cc1OC,i,-9.5,-97.2,-11.3,-3.3,-1.2,-32.9,-4.8
COc1cc(CCC(=O)Nc2c(C(=O)N3CCN(c4ccccc4OC)CC3)oc3ccccc23)on1,i,1.4,0.7,12.7,-0.5,-7.2,-7.7,0.9
CCOc1cccc(-c2nnc3sc(COc4ccc(OC)cc4)nn23)c1,i,-7.9,/,1.3,-1.2,1.5,-11.2,2.1
COCCNC(=O)CN(CC1CCCO1)C(=O)CCC(=O)Nc1ccccn1 (stereo unspecified),i,-7.6,/,-12.4,3.1,4.4,-4.6,2.2
